Cruzain noTriton – cruzain (T. cruzi) inhibition without detergent; 200,000 tested, 2.3% active; P25779; Potency, µM, inactives show max response, negative = inhibition, actives largely listed as inhibitors; purified cruzain, Z-FR-AMC fluorescence, no detergent; active = well fitted curve in the direction sought with a large enough effect; inconclusive = small, poorly fitted or top-dose-only effect, or another doubt; inactive = no such curve, though single readings can be large; an effect the other way counts as inactive or inconclusive;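 note: plate controls were enzyme without inhibitor for no effect and buffer without enzyme for full effect; nearly all actives have a fitted effect of over 40% in size; top concentration of the series not given in the record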
Target sequence (P25779 123-467 limits assumed): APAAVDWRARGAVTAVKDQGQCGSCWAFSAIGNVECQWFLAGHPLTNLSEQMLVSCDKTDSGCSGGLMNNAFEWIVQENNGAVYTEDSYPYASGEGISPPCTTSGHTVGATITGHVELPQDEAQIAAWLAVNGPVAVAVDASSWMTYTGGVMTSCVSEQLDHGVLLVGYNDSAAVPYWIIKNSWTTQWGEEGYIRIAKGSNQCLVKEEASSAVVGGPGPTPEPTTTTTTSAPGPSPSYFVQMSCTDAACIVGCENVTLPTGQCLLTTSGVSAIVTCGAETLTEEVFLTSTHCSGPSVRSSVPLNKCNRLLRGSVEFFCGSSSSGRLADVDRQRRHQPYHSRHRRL
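Detergent-free condition (0.00005% Triton X-100) in acetate buffer pH 5.5 with DTT. 1.5 nM enzyme and compound were pre-mixed 15 min, then 2 uM Z-FR-AMC substrate added; reaction progress from fluorescence change between first and third reads (60 s).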
SARS PLpro yeast – inhibitors of SARS-CoV papain-like protease in yeast; 330,000 tested, 0.19% active; AID 485353; Potency, µM (top dose mostly 32.9 µM), for the others: top-dose activity, positive = growth rescue; S. cerevisiae expressing SARS-CoV PLpro, growth rescue; control for the full effect not named in the record; note: 0% is about no effect; nearly all actives have a fitted effect of over 55% in size; growth read by luminescence after 48 h
Marburg entry inh – Marburg virus entry inhibition; AID 540276; 300,000 tested, 1.8% active; Marburg virus pseudotyped entry inhibition, cell reporter; control for the full effect not named in the record; about a third of the inactives were read at about 46 µM; Potency, µM (titrated, usually from 37.8 µM), for inactives: at the highest dose activity change, negative = inhibition, usual class: inhibitors; active = well fitted inhibition curve with a large enough effect; inconclusive = small, poorly fitted or top-dose-only effect, or effect the other way; inactive = flat fitted curve, though single readings scatter; tested in HEK293 cells; about a fifth of its hits are not listed in these tables; note: % is set by controls: 0 for no effect and ±100 for the full control effect; luciferase read-out
Lassa entry inh – inhibitors of Lassa virus binding or cell entry; Lassa virus pseudotype entry inhibition, cell reporter; control for the full effect not named in the record; 300,000 tested, 1.2% active; Potency, µM (titrated, usually from 37.9 µM), inactives show at the top dose activity change, negative = inhibition, most hits filed as inhibitors; active means well fitted inhibition curve with a large enough effect; inconclusive means small, poorly fitted or top-dose-only effect, or effect the other way; inactive means flat fitted curve, though single readings scatter; tested in HEK293 cells; note: % is set by controls: 0 for no effect and ±100 for the full control effect; nearly all actives have a fitted effect of over 50% in size; luciferase read-out
RE007 growth inh – less growth of the S. pombe RE007 Vpr strain. S. pombe RE007 Vpr strain, BacTiter-Glo ATP luminescence, 24 h; control for the full effect not named in the record. Potency, µM (highest dose often 92.2 µM), for inactives: top-dose activity change, negative = less growth. 360,000 tested, 0.21% active. AID 651644; active = well fitted falling curve with a large enough effect; inconclusive = small, poorly fitted or top-dose-only effect; inactive = no such curve, though single readings can be large or run the other way;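 note: % is set by controls: 0 for no effect and ±100 for the full control effect; nearly all actives have a fitted effect of over 50% in size; the assay follows cell death caused by Vpr and the record does not say whether a fall means rescue or toxicity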
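Fission yeast strain RE007, carrying one chromosomally integrated HIV-1 vpr copy, was seeded at OD 0.01 in PMG+AL medium with 23 nL pinned compound. After 24 h at 30 °C and 99% humidity, viability was read by BacTiter-Glo luminescence.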
Cruzain inh Det – blocks cruzain activity in presence of Triton detergent; P25779; purified cruzain, Z-FR-AMC fluorescence, 0.01% Triton; Potency, µM, for the others: max response, negative = inhibition, usual class: inhibitors; 200,000 tested, 0.43% active; active = well fitted curve in the direction sought with a large enough effect; inconclusive = small, poorly fitted or top-dose-only effect, or another doubt; inactive = no such curve, though single readings can be large; an effect the other way counts as inactive or inconclusive;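 note: plate controls were neutral wells for no effect and buffer without enzyme for full effect; nearly all actives have a fitted effect of over 40% in size; top concentration of the series not given in the record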
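Detergent-containing arm of a paired screen for aggregation-based inhibition: 0.01% Triton X-100 present. Cruzain at 1.5 nM cleaved 2 uM Z-FR-AMC at pH 5.5 with 5 mM DTT; AMC fluorescence gain over 60 s measured activity.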
2A StopGo – FMDV 2A StopGo reporter, luciferase signal; Potency, µM (highest dose often 57.9 µM), for the others: at the top dose signal change, negative = less light; AID 1159524; human cells with a luciferase reporter of 2A StopGo recoding; control for the full effect not named in the record; 410,000 tested, 1.2% active; active = well fitted falling curve with a large enough effect; inconclusive = small, poorly fitted or top-dose-only effect; inactive = no such curve, though single readings can be large or run the other way; tested in HEK293T cells; note: % is set by controls: 0 for no effect and ±100 for the full control effect; nearly all actives have a fitted effect of over 45% in size; luciferase light after 4 h
NS1 inh – blocks influenza NS1 protein function; S. cerevisiae slowed by influenza A NS1, growth recovery by OD600; Potency, µM (titrated, usually from 46.1 µM), for inactives: at the top dose activity, positive = more growth; 270,000 tested, 0.4% active; note: actives are rising curves; nearly all actives have a fitted effect of over 50% in size
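Read-out: OD600 growth recovery of NS1-expressing budding yeast. Cells grown overnight at 30C in -URA glucose medium, washed, resuspended and diluted 1:100 in 2% galactose assay medium, pH 6.0. Same strain lacking NS1 served as positive control.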
Starred values were filed as active, the others as inactive; ? = inconclusive; · = not tested or not shown; & = joins results of further samples; [ ] = another dose, or the depositor's remark. Unless noted, calls come from the whole dose curve; as a rule, active means well fitted rising curve with a large enough effect; inconclusive means small, poorly fitted or top-dose-only effect; inactive means no such curve, though single readings can be large or run the other way. Potency is the fitted concentration of half-maximal effect.

SMILES | Cruzain noTriton | SARS PLpro yeast | Marburg entry inh | Lassa entry inh | RE007 growth inh | Cruzain inh Det | 2A StopGo | NS1 inh
CC(C)(C)c1ccc(C(=O)NC(=O)COC(=O)c2ccc(Br)o2)cc1 | · | 0.6% | 5.3% | 3.5% | -9.4% | · | 6.9% | ·
CN1CCN(CCCCC(=O)c2ccccc2)CC1 | -7.2% | -2.6% | 2.1%&2.1% | 1.5% | -2.0% | 2.8% | 1.5% | -3.6%
COc1cccc(/C=N/NC(=O)C(=O)NCc2ccco2)c1OC | 5.5% | 23.9% | -4.3% | 4.8% | -9.7% | -2.9% | 7.4% | -3.0%
CCOC(=O)C(Cc1c(F)cccc1Cl)c1ccnc2nc(N)nn12 (stereo unspecified) | · | 3.2% | -0.1% | -29.9% | 7.0% | · | -7.7% | -2.4%
Cc1oc2ccc(OCc3ccc(F)cc3Cl)cc2c1C(=O)O | · | -1.6% | -1.9% | · | 8.5% | · | -8.4% | 2.8%
O=[N+]([O-])c1cc(Br)ccc1NS(=O)(=O)c1ccccc1 | · | · | ? | 16.8%[46.1 µM] | -21.9% | · | -15.2% | ·
COc1ccc2oc(=O)c(C(=O)NCc3ccc(F)cc3)cc2c1 | · | 6.1% | 1.4% | 11.6% | -7.3% | · | -6.1% | -10.0%
COc1ccc(O)c(C=Nc2cc(C)on2)c1 | -10.7% | 1.2% | 2.3% | 14.6% | 7.4% | 3.9% | -21.4% | -2.9%
CCn1c(-c2cc(-c3ccc(C)cc3)nc3ccccc23)n[nH]c1=S | · | -3.0% | ? | -18.5%[46.1 µM] | 13.1% | · | 4.0% | ·
COc1ccc(C2C(C(=O)NCc3ccco3)CCC(=O)N2c2ccc(OC)cc2)cc1 (stereo unspecified) | 10.8% | -0.8% | 17.5%[46.1 µM] | -3.6% | 21.3% | 1.8% | 12.5% | 5.6%
COCCNCC(=O)Nc1nc(C)cs1 | · | -0.1% | 3.7%[46.1 µM] | -0.2% | 8.6% | · | 8.1% | ·
Cc1cccc(N(C)S(=O)(=O)c2csc(C(N)=O)c2)c1 | · | 0.7% | 20.4% | ? | -19.5% | · | -8.9% | -0.8%
CCOC(=O)c1ccc(NS(=O)(=O)c2cc(-c3nnnn3CC)ccc2OC)cc1 | -7.5% | 24.5% | 18.0% | -25.1% | 0.3% | -3.5% | 23.6% | -21.1%
COc1cccc(NC(=O)c2ccccc2-c2ccccc2C(=O)O)c1 | · | 2.8% | -0.1%[46.1 µM] | 8.5%[46.1 µM] | -5.3% | · | -0.2% | 12.0%
Cc1nc(C)c(-c2csc(NCc3ccccc3)n2)s1 | -3.1% | -57.1% | -10.9% | 20.1% | -4.3% | -11.2% | -3.8% | -40.1%
COc1ccccc1C(=O)Nc1cccc(C(=O)OCc2cc(=O)n3c4c(sc3n2)CCCC4)c1 | 6.5% | · | · | 0.8%[46.1 µM] | · | 1.1% | -8.5% | ·
CCCC1Cc2c(sc3ncnc(N)c23)CO1 (stereo unspecified) | -5.1% | 0.6% | 17.6% | ? | 40.6% | 0.5% | -20.4% | -6.7%
COc1ccc(C(=O)NCCn2ccc3ccccc32)c(OC)c1 | 4.7% | -7.6% | ? | ? | -6.5% | -1.6% | 24.8% | -33.1%
Cc1cccc(C(=O)NC(=O)Nc2ccc(-c3cc(C(F)(F)F)nn3-c3ccccc3)cc2)c1 | 1.0% | · | · | ? | · | 2.4% | ? | ·
C=CCn1c(SCC(=O)Nc2cc(C)ccc2C)nnc1-c1cnccn1 | 3.8% | 6.9% | 29.4% | 3.4% | 1.2% | 3.6% | 2.3% | 5.6%
O=C(NCc1ccc(Cl)cc1)C1CCCN(C(=O)c2cnn(-c3ccc(F)cc3)c2-n2cccc2)C1 (stereo unspecified) | ? | · | · | -25.2%[46.1 µM] | · | -8.4% | ? | ·
Cc1c(NC(=O)c2cc(-c3ccc(F)cc3)nc3ccccc23)c(=O)n(-c2ccccc2)n1C | · | 3.8% | ? | -29.5%[46.1 µM] | -4.3% | · | -13.2% | ·
O=S(=O)(NCc1cn2ccccc2n1)c1cc(F)ccc1F | 0.6% | -12.1% | 6.5% | 11.0% | -13.0% | 0.7% | 0.0% | -1.0%
CC(=O)N/N=C/c1c(C)[nH]n(-c2ccccc2)c1=O | · | -3.2% | -6.7%[46.1 µM] | 14.8% | -2.7% | · | -9.9% | ·
CCOC(=O)c1cnn(-c2nc(OCC)cc(OCC)n2)c1C | 1.7% | 0.1% | ? | -1.2% | 5.2% | 0.7% | -24.8% | -23.4%

Next part; it opens with the two that closed the last part.
SMILES | Cruzain noTriton | SARS PLpro yeast | Marburg entry inh | Lassa entry inh | RE007 growth inh | Cruzain inh Det | 2A StopGo | NS1 inh
CC(=O)N/N=C/c1c(C)[nH]n(-c2ccccc2)c1=O | · | -3.2% | -6.7%[46.1 µM] | 14.8% | -2.7% | · | -9.9% | ·
CCOC(=O)c1cnn(-c2nc(OCC)cc(OCC)n2)c1C | 1.7% | 0.1% | ? | -1.2% | 5.2% | 0.7% | -24.8% | -23.4%
CCCC(=O)N(CCN1CCOCC1)c1nc2cc(C)c(C)cc2s1 | · | 7.7% | -5.3%[46.1 µM] | ? | 0.3% | · | 11.3% | -21.4%
CC1=NNC(=O)C1Cc1ccccc1C (stereo unspecified) | · | -1.6% | 6.4% | -2.3% | 37.8% | · | 1.1% | 6.2%
CCN1CCC(Nc2ccnc3cc(Cl)ccc23)CC1 | · | -1.6% | 12.6µM* | 16.5%[46.1 µM] | -18.8% | · | -2.2% | 1.9%
COc1ccc(OCC(=O)Nc2ccc(C(=O)Nc3ccccc3C(=O)O)cc2)cc1 | · | -4.1% | · | · | -4.6% | · | 43.4%[activator] | -8.1%
CC(C)(C)c1ccccc1OCC(=O)Nc1ccccc1C(=O)NCc1cccnc1 | · | -47.6% | ? | ? | -2.2% | · | -18.8% | -15.6%
CCn1c2ccccc2c2cc(NC(=O)CN(C)CC(=O)Nc3ccc(N4CCOCC4)cc3)ccc21 | · | -1.6% | · | · | -0.2% | · | -19.9% | -16.4%
CC1Cc2ccccc2N1C(=O)CSc1nnc(-c2ccc(S(=O)(=O)N3CCCC3)cc2)o1 (stereo unspecified) | -5.2% | -2.0% | -8.9%&-8.9% | -40.6% | 10.2% | -0.6% | -1.5% | 5.8%
Cc1ccc(OC(=O)c2ccc3snnc3c2)cc1 | 0.4% | -13.8% | 3.4% | -16.9% | -4.0% | -2.8% | · | -68.4%
Cc1ccc(C(=O)O)cc1NC(=S)NC(=O)Cc1ccccc1 | -6.4% | 10.3% | 18.5% | ? | 20.1% | 4.5% | 3.6% | 0.4%
COCCCn1c(C(=O)N2CC(C)OC(C)C2)cc2c(=O)n3ccccc3nc21 (stereo unspecified) | · | -2.9% | · | · | -2.2% | · | -0.8% | -10.8%
COCc1[nH]c(=S)[nH]c(=O)c1C | · | -0.7% | -3.3% | 28.4% | 4.1% | · | -6.6% | -0.1%
COc1ccc(N2CCN(S(=O)(=O)c3ccc4c(c3)N(C(C)=O)CCO4)CC2)cc1 | · | 4.0% | · | · | 22.2% | · | -27.6% | -9.4%
N#CC1(NC(=O)Cn2cc(C(F)(F)F)cc(Cl)c2=O)CCCCC1 | · | -2.7% | · | · | -0.3% | · | -1.8% | 5.8%
Cc1ccccc1NC(=O)Cc1nnc(NC(=O)Nc2ccccc2F)s1 | · | 1.5% | 0.8%[46.1 µM] | 3.2% | 29.7% | · | -3.6% | 1.0%
CCN(CC)CCCNC(=O)Cn1nc(C)n2c(cc3sccc32)c1=O | -1.0% | · | -17.2%[46.1 µM] | · | · | -2.4% | -7.2% | ·
Cc1ccccc1C(=O)NC1CCN(CC(=O)NC2CCCCC2)CC1 | · | -6.5% | ? | -5.9%[46.1 µM] | 7.1% | · | 4.3% | 5.2%
CS(=O)(=O)N1CCN=C1SCc1ccccc1 | · | 2.8% | · | · | -19.0% | · | -2.5% | 16.8%
Cc1ccc(N2C(N)=C(C#N)C(c3ccsc3)C3=C2CC(C)(C)CC3=O)cc1 (stereo unspecified) | -17.9% | 2.6% | ? | ? | 8.3% | -5.0% | -25.9% | 17.3%
COc1cc(NC(=O)CN2C(=O)CCc3cc(Br)ccc32)cc(OC)c1OC | ? | · | · | 18.8%[46.1 µM] | · | -2.9% | -13.8% | ·
COC(=O)c1c(-c2cccs2)csc1NC(=O)CN1CCOCC1 | ? | -5.9% | ? | -26.2% | 1.1% | -1.3% | ? | -82.9%
Cc1ccccc1NS(=O)(=O)c1ccc(C(=O)NNC(=O)c2ccccc2O)cc1 | · | · | ? | ? | 0.1% | · | 5.7% | ·
Cc1cc(Nc2ccccc2)nc(NCc2ccccc2)n1 | 0.1% | -28.7% | ? | ? | 13.6% | -4.4% | -18.8% | -46.7%
O=c1c2ccccc2nc(-c2ccco2)n1-c1ccccn1 | -1.6% | 5.6% | ? | 5.9% | -7.6% | -2.1% | -14.0% | 1.5%
COCCNc1ccc(N2C(=O)C3CCCCC3C2=O)cc1[N+](=O)[O-] (stereo unspecified) | · | 4.6% | ? | -1.3%[46.1 µM] | 7.8% | · | 22.6% | ·

A second format for some results above:
Results follow in this order: Cruzain noTriton | SARS PLpro yeast | Marburg entry inh | Lassa entry inh | RE007 growth inh | Cruzain inh Det | 2A StopGo | NS1 inh
> CCCC(=O)N(CCN1CCOCC1)c1nc2cc(C)c(C)cc2s1
    · | 7.7% | -5.3%[46.1 µM] | ? | 0.3% | · | 11.3% | -21.4%
> CC1=NNC(=O)C1Cc1ccccc1C (stereo unspecified)
    · | -1.6% | 6.4% | -2.3% | 37.8% | · | 1.1% | 6.2%
> CCN1CCC(Nc2ccnc3cc(Cl)ccc23)CC1
    · | -1.6% | 12.6µM* | 16.5%[46.1 µM] | -18.8% | · | -2.2% | 1.9%

Assay outcomes from PubChem.
